Source: PubChem
NS1 function inh: blocks influenza NS1 protein function. S. cerevisiae slowed by influenza A NS1, growth recovery by OD600. Potency, µM (series often up to 46.1 µM), inactives show at the highest dose activity, positive = more growth. actives 0.4% (n = 270,000). AID 2326; further: actives are rising curves; nearly all actives have a fitted effect of over 50% in size
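Compounds were scored for reversing the slow growth caused by influenza A NS1 in S. cerevisiae, measured by optical density at 600 nm. Assay medium contained 2% galactose at pH 6.0; NS1-free yeast of the same strain were the positive control.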
RE007 growth inh: less growth of the S. pombe RE007 Vpr strain | S. pombe RE007 Vpr strain, BacTiter-Glo ATP luminescence, 24 h; control for the full effect not named in the record | Potency, µM (highest dose often 92.2 µM), for the others: at the highest dose activity change, negative = less growth | actives 0.21% (n = 360,000); active = well fitted falling curve with a large enough effect; inconclusive = small, poorly fitted or top-dose-only effect; inactive = no such curve, though single readings can be large or run the other way;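 further: on the % scale 0 is the no-effect control and ±100 the full control effect; nearly all actives have a fitted effect of over 50% in size; the assay follows cell death caused by Vpr and the record does not say whether a fall means rescue or toxicity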
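Fission yeast strain RE007, carrying one chromosomally integrated HIV-1 vpr copy, was seeded at OD 0.01 in PMG+AL medium with 23 nL pinned compound. After 24 h at 30 °C and 99% humidity, viability was read by BacTiter-Glo luminescence.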
StopGo reporter: lowers the luciferase signal of an FMDV 2A StopGo reporter. human cells with a luciferase reporter of 2A StopGo recoding; control for the full effect not named in the record. Potency, µM (series often up to 57.9 µM), without a hit: at the highest dose signal change, negative = less light. actives 1.2% (n = 410,000); active = well fitted falling curve with a large enough effect; inconclusive = small, poorly fitted or top-dose-only effect; inactive = no such curve, though single readings can be large or run the other way; tested in HEK293T cells; further: on the % scale 0 is the no-effect control and ±100 the full control effect; nearly all actives have a fitted effect of over 45% in size; luciferase light after 4 h
Cruzain Triton: inhibitors of Trypanosoma cruzi cruzain with detergent; purified cruzain, Z-FR-AMC fluorescence, 0.01% Triton; Potency, µM, for inactives: max response, negative = inhibition, usual class: inhibitors; actives 0.43% (n = 200,000); AID 1478; active means well fitted curve in the direction sought with a large enough effect; inconclusive means small, poorly fitted or top-dose-only effect, or another doubt; inactive means no such curve, though single readings can be large; an effect the other way counts as inactive or inconclusive;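 further: plate controls were neutral wells for no effect and buffer without enzyme for full effect; nearly all actives have a fitted effect of over 40% in size; top concentration of the series not given in the record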
Target sequence (P25779 123-467 limits assumed): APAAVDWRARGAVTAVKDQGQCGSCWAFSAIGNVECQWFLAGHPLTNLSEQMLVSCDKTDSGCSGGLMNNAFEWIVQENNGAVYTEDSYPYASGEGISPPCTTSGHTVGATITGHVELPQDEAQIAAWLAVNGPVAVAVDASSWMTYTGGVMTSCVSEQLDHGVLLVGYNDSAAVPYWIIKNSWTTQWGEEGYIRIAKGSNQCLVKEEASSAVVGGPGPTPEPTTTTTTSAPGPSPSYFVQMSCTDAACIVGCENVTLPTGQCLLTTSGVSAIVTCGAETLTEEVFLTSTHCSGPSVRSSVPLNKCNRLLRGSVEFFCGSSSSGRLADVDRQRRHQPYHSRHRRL
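Purified cruzain (1.5 nM final) was preincubated with compounds for 15 min at room temperature in 100 mM sodium acetate pH 5.5, 5 mM DTT, 0.01% Triton X-100. Reaction started with 2 uM Z-FR-AMC; AMC fluorescence change over 60 s gave activity.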
Marburg entry inh: blocks Marburg virus binding to or entry into cells. Marburg virus pseudotyped entry inhibition, cell reporter; control for the full effect not named in the record; about a third of the inactives were read at about 46 µM. Potency, µM (doses to about 37.8 µM), for the others: top-dose activity change, negative = inhibition, most hits filed as inhibitors. actives 1.8% (n = 300,000). AID 540276; active = well fitted inhibition curve with a large enough effect; inconclusive = small, poorly fitted or top-dose-only effect, or effect the other way; inactive = flat fitted curve, though single readings scatter; tested in HEK293 cells; about a fifth of its hits are not listed in these tables; further: on the % scale 0 is the no-effect control and ±100 the full control effect; luciferase read-out
SARS PLP yeast: inhibitors of SARS-CoV papain-like protease in yeast. S. cerevisiae expressing SARS-CoV PLpro, growth rescue; control for the full effect not named in the record. Potency, µM (doses to about 32.9 µM), for inactives: at the highest dose activity, positive = growth rescue. actives 0.19% (n = 330,000). AID 485353; further: 0% is about no effect; nearly all actives have a fitted effect of over 55% in size; growth read by luminescence after 48 h
Cruzain noTriton: blocks cruzain activity in detergent-free assay; Potency, µM, inactives show max response, negative = inhibition, usual class: inhibitors; purified cruzain, Z-FR-AMC fluorescence, no detergent; actives 2.3% (n = 200,000); active means well fitted curve in the direction sought with a large enough effect; inconclusive means small, poorly fitted or top-dose-only effect, or another doubt; inactive means no such curve, though single readings can be large; an effect the other way counts as inactive or inconclusive;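 further: plate controls were enzyme without inhibitor for no effect and buffer without enzyme for full effect; nearly all actives have a fitted effect of over 40% in size; top concentration of the series not given in the record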
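Detergent-free condition (0.00005% Triton X-100) in acetate buffer pH 5.5 with DTT. 1.5 nM enzyme and compound were pre-mixed 15 min, then 2 uM Z-FR-AMC substrate added; reaction progress from fluorescence change between first and third reads (60 s).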
LASV entry inh: Lassa virus entry inhibition; Lassa virus pseudotype entry inhibition, cell reporter; control for the full effect not named in the record; Potency, µM (series often up to 37.9 µM), for inactives: at the highest dose activity change, negative = inhibition, actives largely listed as inhibitors; AID 540256; actives 1.2% (n = 300,000); active means well fitted inhibition curve with a large enough effect; inconclusive means small, poorly fitted or top-dose-only effect, or effect the other way; inactive means flat fitted curve, though single readings scatter; tested in HEK293 cells; further: on the % scale 0 is the no-effect control and ±100 the full control effect; nearly all actives have a fitted effect of over 50% in size; luciferase read-out
An asterisk follows results filed as active; ? = inconclusive; / = no result given; & = joins results of further samples; [ ] = remark or other dose. Unless noted, the call rests on the fitted dose curve; in most records, active means well fitted rising curve with a large enough effect; inconclusive means small, poorly fitted or top-dose-only effect; inactive means no such curve, though single readings can be large or run the other way. Potency means the concentration at half of the fitted maximal effect.

(1) COc1ccc(CCN2CC(C(=O)N3CCC(OC)CC3)CCC2=O)cc1 (stereo not drawn)
(2) Cc1ccc2oc3c(c(=O)c2c1)C(c1ccccc1F)N(CCCN1CCOCC1)C3=O (stereo not drawn)
(3) Cc1ccc(C(=O)NCCNS(=O)(=O)c2ccccc2)cc1
(4) O=C(c1ccco1)N1CCN(c2ncnc3scc(-c4cccs4)c23)CC1
(5) O=C(CSc1nccn1-c1cccc(F)c1)NC1CCCC1
(6) O=C(NCc1ccc2c(c1)OCO2)C1CC(=O)N(C2CCCC2)C1 (stereo not drawn)
(7) O=C1c2ccccc2C(Nc2cccnc2)N1Cc1ccc2c(c1)OCO2 (stereo not drawn)
(8) Cc1ccc(S(=O)(=O)N2CCCCC2)cc1NS(=O)(=O)c1ccccc1F

Screen / compound no.,1,2,3,4,5,6,7,8
NS1 function inh,7%,/,7%,-53%,/,-3%,-2%,/
RE007 growth inh,-1%,/,-1%,-5%,11%,-1%,-7%,-10%
StopGo reporter,-5%,-15%,0%,22µM*,-12%,16%,7%,20%
Cruzain Triton,/,-2.7%,3.4%,-14%,/,4.9%,-0.8%,/
Marburg entry inh,25%,-5%[46.1 µM],4%,-8%,?,12%,7%,?
SARS PLP yeast,0%,/,-4%,-10%,-5%,2%,-6%,11%
Cruzain noTriton,/,10%,7%,-15%,/,16%,-2%,/
LASV entry inh,1%,-4%[46.1 µM],6%,?,19%,0%,2%,1%[46.1 µM]

(9) CCCCc1ccc(C(=O)Nc2ccc3nc(N4CCN(CC)CC4)cc(C)c3c2)cc1
(10) CC(=O)c1c(C)[nH]c(C(=O)/C(C#N)=C/c2cccc(C)c2)c1C
(11) CCOc1ccc(NC(=S)NCCCN2CCOCC2)cc1
(12) CN(CC(=O)Nc1ccc(N2CCOCC2)cc1)C(=O)COc1ccccc1F
(13) O=C(Nc1ccc(Cl)cc1)N1CCCN(c2ccc(C(F)(F)F)cc2[N+](=O)[O-])CC1
(14) CCn1cc(C(=O)Nc2ncccc2O)c(=O)c2cc(F)c(N3CCN(C(=O)c4ccco4)CC3)cc21
(15) O=C(/C=C/NNC(=O)c1cccc(Br)c1)c1ccccc1
(16) Cc1c(NC(=O)c2nc3ccccc3nc2N2CCCCC2)cccc1[N+](=O)[O-]

Screen / compound no.,9,10,11,12,13,14,15,16
NS1 function inh,/,21%,/,-2%,0%,22%,-12%,/
RE007 growth inh,/,11%,21%,-4%,-11%,-3%,-17%,/
StopGo reporter,?,-1%,4%,-13%,?,-25%,4%,50%[activator]
Cruzain Triton,-0.3%,/,/,/,/,/,-8.0%,-4.1%
Marburg entry inh,8%[46.1 µM],?,0%[46.1 µM],7%[46.1 µM],?,/,-15%,-4%[46.1 µM]
SARS PLP yeast,/,2%,-12%,1%,0%,-4%,-21%,/
Cruzain noTriton,-5%,/,/,/,/,/,?,7%
LASV entry inh,10%[46.1 µM],-18%[46.1 µM],1%,7%,2%,/,5%,-12%[46.1 µM]

Two of the compounds above, bar-delimited.
nr | canonical_smiles | NS1 function inh | RE007 growth inh | StopGo reporter | Cruzain Triton | Marburg entry inh | SARS PLP yeast | Cruzain noTriton | LASV entry inh
11 | CCOc1ccc(NC(=S)NCCCN2CCOCC2)cc1 | / | 21% | 4% | / | 0%[46.1 µM] | -12% | / | 1%
12 | CN(CC(=O)Nc1ccc(N2CCOCC2)cc1)C(=O)COc1ccccc1F | -2% | -4% | -13% | / | 7%[46.1 µM] | 1% | / | 7%

More entries:
(17) COc1ccc(NC(=S)NNC(=O)COc2ccc(Cl)cc2Cl)cc1
(18) O=C1Nc2ccccc2/C1=N\N=C\C1=C(N2CCOCC2)C(=C\c2ccccc2)/CC1
(19) O=C(NCc1ccco1)c1cnn2c(C(F)(F)F)cc(-c3ccccc3)nc12
(20) C/C(=N\NC(=O)c1c(Br)c(C)nn1C)c1cccc(NC(=O)c2ccccc2C)c1
(21) CSc1n[nH]c(=S)n1N
(22) NC(=O)c1cccnc1Nc1ccccc1Cl
(23) COCc1cc(C)nc(N/N=C/c2ccc(-c3ccc(Cl)cc3[N+](=O)[O-])o2)c1C#N
(24) CC(C)(C)OC(=O)N1CCCC1C(=O)N1CCCC1C(=O)N1CCCC1C(=O)O (stereo not drawn)

Screen / compound no.,17,18,19,20,21,22,23,24
NS1 function inh,17%,-8%,-2%,-29%,3%,-49%,/,1%
RE007 growth inh,10%,/,11%,-2%,0%,9%,-13%,4%
StopGo reporter,0%,/,/,-8%,-3%,38%[activator],-14%,2%
Cruzain Triton,-7.0%,-17%,-3.3%,-7.8%,/,-0.3%,/,0.4%
Marburg entry inh,?,/,?,-18%,/,15%,-3%[46.1 µM],28%
SARS PLP yeast,-16%,0%,0%,1%,-1%,-9%,-10%,-1%
Cruzain noTriton,-8%,7%,-5%,6%,/,1%,/,7%
LASV entry inh,-4%,/,0%,-8%,/,3%,-10%[46.1 µM],23%

(25) CCOc1ccccc1C(=O)NCCNC(=O)c1ccccc1OCC
(26) Cc1ccc(C2C(C#N)=C(N)Oc3c2c(=O)n(C)c(=O)n3C)cc1 (stereo not drawn)
(27) CCCCOc1ccc(CNC(=O)CN2C(=O)CCn3nc(-c4cn(C)c5ccccc45)cc32)cc1
(28) COCCn1c(CNc2ccc(F)cc2)nnc1SCC(=O)Nc1ccc(OC)cc1OC
(29) COc1ccc(-c2noc(-c3ccc(NCCc4ccccc4)c([N+](=O)[O-])c3)n2)cc1
(30) CC(C)c1ccc(C2NC(=O)NC3=C2CCc2ccccc23)cc1 (stereo not drawn)
(31) O=C(NCCc1ccccc1)c1ccc(=O)[nH]c1
(32) O=C(/C=C/c1ccc(OCc2ccccc2)c(OCc2ccccc2)c1)c1cccnc1

Screen / compound no.,25,26,27,28,29,30,31,32
NS1 function inh,/,9%,/,-2%,/,-7%,?,21%
RE007 growth inh,1%,-3%,/,18%,/,16%,1%,-2%
StopGo reporter,-14%,0%,-21%,-3%,-6%,?,46%[activator],?
Cruzain Triton,/,-7.0%,-2.8%,1.8%,-2.3%,-12%,5.2%,-3.1%
Marburg entry inh,-8%,-1%,/,16%,13%[46.1 µM],-56%,-1%,-11%
SARS PLP yeast,/,-4%,/,/,/,5%,-1%,-2%
Cruzain noTriton,/,-5%,?,-5%,-9%,6%,-3%,-5%
LASV entry inh,?,6%,?,8%,18%[46.1 µM],-18%,26%,-19%

2 entries drawn at random from the list so far, as already listed:
(25) CCOc1ccccc1C(=O)NCCNC(=O)c1ccccc1OCC
(31) O=C(NCCc1ccccc1)c1ccc(=O)[nH]c1

Screen / compound no.,25,31
NS1 function inh,/,?
RE007 growth inh,1%,1%
StopGo reporter,-14%,46%[activator]
Cruzain Triton,/,5.2%
Marburg entry inh,-8%,-1%
SARS PLP yeast,/,-1%
Cruzain noTriton,/,-3%
LASV entry inh,?,26%

(continued)
(33) COc1cccc(CC(=O)Nc2ccc(S(=O)(=O)N3CCCCC3)cc2)c1
(34) CC1(C)CC(=O)c2sc(NC(=O)Cc3cccs3)nc2C1
(35) Cc1ccc(NC(=O)C2CCCN(S(=O)(=O)c3ccc4[nH]c(=O)ccc4c3)C2)cc1Cl (stereo not drawn)
(36) CCc1c(C(=O)NNC(=S)NCCc2ccccc2)csc1C
(37) Cc1ccc(/C=C/C2=NN(Cc3ccc(Cl)c(Cl)c3)C(=O)CC2)cc1
(38) Cc1ccc(C(=O)Nc2ccc3oc(-c4ccccc4C)nc3c2)cc1
(39) CCC(=O)Nc1ccc(NC(=O)c2cccc3ccccc23)cc1
(40) O=C(NCCNC(=O)c1ccc(Br)o1)c1ccc(Br)o1

Screen / compound no.,33,34,35,36,37,38,39,40
NS1 function inh,/,1%,/,4%,9%,/,-3%,-71%
RE007 growth inh,8%,26%,/,26%,3%,/,1%,2%
StopGo reporter,15%,8%,-22%,21%,-9%,0%,13%,6%
Cruzain Triton,/,1.0%,-1.0%,-0.4%,-4.0%,-4.7%,/,3.6%
Marburg entry inh,10µM*,-3%[46.1 µM],/,0%,30%,?,-9%,3%
SARS PLP yeast,0%,-9%,/,3%,4%,/,24%,15%
Cruzain noTriton,/,3%,-1%,6%,-6%,-4%,/,-4%
LASV entry inh,?,15%,-5%[46.1 µM],?,-15%,7%[46.1 µM],19%,18%

(41) Cc1ccc(OCC(=O)NC2CC(C)(C)NC(C)(C)C2)c(C)c1
(42) O=S(=O)(c1ccc2oc(=S)[nH]c2c1)N1CCOCC1
(43) Cc1cccc(NC(=O)CCc2ccccc2)c1
(44) C=CCNC(=O)NC(=O)COn1nnc2ccc(S(=O)(=O)N(C)C)cc21
(45) COC(=O)c1oc2ccc(Br)cc2c1NC(C)=O
(46) COc1ccc2[nH]c(C(=O)N(Cc3ccccn3)Cc3ccccn3)cc2c1
(47) Cc1ccc(NC(=O)c2cnc(SCC(=O)NCC3CCCO3)n(C)c2=O)cc1 (stereo not drawn)
(48) CC(C)c1ccc(N=C(N)N=C(N)N)cc1
(49) CCn1cc(C(=O)NCCCN2CCC(C)CC2)c(=O)c2cc(S(=O)(=O)N3CCCC3)ccc21
(50) O=C(NCCc1ccc(Cl)cc1)c1cccs1

Screen / compound no.,41,42,43,44,45,46,47,48,49,50
NS1 function inh,9%,/,/,-8%,-5%,-1%,/,/,1%,/
RE007 growth inh,3%,21%,1%,20%,14%,-8%,-28%,-2%,7%,-3%
StopGo reporter,-15%,-22%,0%,5%,-22%,45%[activator],25µM*,0%,-2%,41%[activator]
Cruzain Triton,/,/,/,0.0%,-0.8%,/,/,/,0.7%,/
Marburg entry inh,-4%[46.1 µM],-20%,17%,3%,/,/,?,?,5%&5%,?
SARS PLP yeast,0%,2%,-5%,2%,-5%,0%,-4%,0%,-2%,-6%
Cruzain noTriton,/,/,/,3%,4%,/,/,/,-7%,/
LASV entry inh,-21%[46.1 µM],12%,30%,4%,/,/,?,-2%,2%,-11%
